Compound activity deposited in PubChem by National Center for Advancing Translational Sciences (NCATS).
MARV entry inh: qHTS for inhibitors of binding or entry into cells for Marburg Virus | Marburg virus pseudotyped entry inhibition, cell reporter; control for the full effect not named in the record; about a third of the inactives were read at about 46 µM | Potency, µM (highest dose often 37.8 µM), without a hit: at the top dose activity change, negative = inhibition, hits mostly inhibitors | 300,000 compounds, 1.8% hits; active = well fitted inhibition curve with a large enough effect; inconclusive = small, poorly fitted or top-dose-only effect, or effect the other way; inactive = flat fitted curve, though single readings scatter; tested in HEK293 cells; about a fifth of its hits are not listed in these tables; note: % is set by controls: 0 for no effect and ±100 for the full control effect; luciferase read-out
RE007 growth inh: qHTS Assay for Inhibitors of the HIV-1 protein Vpr | S. pombe RE007 Vpr strain, BacTiter-Glo ATP luminescence, 24 h; control for the full effect not named in the record | Potency, µM (top dose mostly 92.2 µM), for the others: top-dose activity change, negative = less growth | 360,000 compounds, 0.21% hits | AID 651644, 2012; active = well fitted falling curve with a large enough effect; inconclusive = small, poorly fitted or top-dose-only effect; inactive = no such curve, though single readings can be large or run the other way;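 note: % is set by controls: 0 for no effect and ±100 for the full control effect; nearly all actives have a fitted effect of over 50% in size; the assay follows cell death caused by Vpr and the record does not say whether a fall means rescue or toxicity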
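Fission yeast RE007 carrying one integrated HIV-1 vpr copy, seeded at OD 0.01 in PMG+AL medium with 23 nL pinned compound. Grown 24 h at 30 degrees; viability read by BacTiter-Glo luminescence after 5 min.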
Cruzain noTriton: qHTS Assay for Promiscuous and Specific Inhibitors of Cruzain (without detergent); Cruzipain (Trypanosoma cruzi), P25779; purified cruzain, Z-FR-AMC fluorescence, no detergent; Potency, µM, for inactives: max response, negative = inhibition, usual class: inhibitors; 200,000 compounds, 2.3% hits; AID 1476, 2009;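 note: plate controls were enzyme without inhibitor for no effect and buffer without enzyme for full effect; nearly all actives have a fitted effect of over 40% in size; top concentration of the series not given in the record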
Target sequence (P25779 123-467 limits assumed): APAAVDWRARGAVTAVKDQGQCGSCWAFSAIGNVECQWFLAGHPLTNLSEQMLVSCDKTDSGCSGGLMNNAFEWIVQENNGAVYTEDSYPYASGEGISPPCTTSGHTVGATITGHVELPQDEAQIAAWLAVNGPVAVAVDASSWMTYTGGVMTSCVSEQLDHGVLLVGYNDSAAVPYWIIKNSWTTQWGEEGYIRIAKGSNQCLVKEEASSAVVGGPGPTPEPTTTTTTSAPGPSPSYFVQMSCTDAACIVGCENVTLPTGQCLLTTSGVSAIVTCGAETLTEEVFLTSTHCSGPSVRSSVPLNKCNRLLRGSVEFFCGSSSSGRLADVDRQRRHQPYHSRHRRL
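Detergent-free condition (0.00005% Triton X-100) in acetate buffer pH 5.5 with DTT. 1.5 nM enzyme and compound were pre-mixed 15 min, then 2 uM Z-FR-AMC substrate added; reaction progress from fluorescence change between first and third reads (60 s).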
StopGo reporter: High Throughput Screening for Foot and Mouth Disease Virus Antivirals. human cells with a luciferase reporter of 2A StopGo recoding; control for the full effect not named in the record. Potency, µM (highest dose often 57.9 µM), without a hit: at the top dose signal change, negative = less light. 410,000 compounds, 1.2% hits. AID 1159524, 2015; active = well fitted falling curve with a large enough effect; inconclusive = small, poorly fitted or top-dose-only effect; inactive = no such curve, though single readings can be large or run the other way; tested in HEK293T cells; note: % is set by controls: 0 for no effect and ±100 for the full control effect; nearly all actives have a fitted effect of over 45% in size; luciferase light after 4 h
NS1 inh: qHTS Assay for Inhibitors of Influenza NS1 Protein Function | S. cerevisiae slowed by influenza A NS1, growth recovery by OD600 | Potency, µM (series often up to 46.1 µM), without a hit: at the highest dose activity, positive = more growth | 270,000 compounds, 0.4% hits; active means well fitted rising curve with a large enough effect; inconclusive means small, poorly fitted or top-dose-only effect; inactive means no such curve, though single readings can be large or run the other way; note: nearly all actives have a fitted effect of over 50% in size
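S. cerevisiae expressing influenza A NS1, grown in glucose, washed, then diluted 1:100 into pH 6.0 -URA galactose medium with 23 nl compound. Growth recovery read as OD600; NS1-free strain serves as control.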
SARS PLpro yeast: qHTS of Yeast-based Assay for SARS-CoV PLP | 330,000 compounds, 0.19% hits | Potency, µM (series often up to 32.9 µM), inactives show at the top dose activity, positive = growth rescue | S. cerevisiae expressing SARS-CoV PLpro, growth rescue; control for the full effect not named in the record; active means well fitted rising curve with a large enough effect; inconclusive means small, poorly fitted or top-dose-only effect; inactive means no such curve, though single readings can be large or run the other way; note: 0% is about no effect; nearly all actives have a fitted effect of over 55% in size; growth read by luminescence after 48 h
Cruzain Triton: qHTS Assay for Promiscuous and Specific Inhibitors of Cruzain (with detergent); 200,000 compounds, 0.43% hits; purified cruzain, Z-FR-AMC fluorescence, 0.01% Triton; AID 1478, 2009; Potency, µM, for inactives: max response, negative = inhibition, usual class: inhibitors; Cruzipain (Trypanosoma cruzi), P25779;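 note: plate controls were neutral wells for no effect and buffer without enzyme for full effect; nearly all actives have a fitted effect of over 40% in size; top concentration of the series not given in the record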
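Detergent-containing run (0.01% Triton X-100) in acetate buffer pH 5.5 with 5 mM DTT: enzyme at 1.5 nM final, 15 min compound preincubation at room temperature, then 2 uM Z-FR-AMC substrate. Activity taken as 60 s fluorescence increase at 360/450 nm.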
LASV entry inh: qHTS for Inhibitors of binding or entry into cells for Lassa Virus. Potency, µM (highest dose often 37.9 µM), inactives show at the highest dose activity change, negative = inhibition, most hits filed as inhibitors. AID 540256, 2011. Lassa virus pseudotype entry inhibition, cell reporter; control for the full effect not named in the record. 300,000 compounds, 1.2% hits; active means well fitted inhibition curve with a large enough effect; inconclusive means small, poorly fitted or top-dose-only effect, or effect the other way; inactive means flat fitted curve, though single readings scatter; tested in HEK293 cells; note: % is set by controls: 0 for no effect and ±100 for the full control effect; nearly all actives have a fitted effect of over 50% in size; luciferase read-out
* hit, by the source's call; ? = inconclusive; nt = no result given; & = joins results of further samples; [ ] = another dose, or the depositor's remark. Unless noted, calls come from the whole dose curve; as a rule, active = well fitted curve in the direction sought with a large enough effect; inconclusive = small, poorly fitted or top-dose-only effect, or another doubt; inactive = no such curve, though single readings can be large; an effect the other way counts as inactive or inconclusive. Potency is the fitted concentration of half-maximal effect.

compound	SARS PLpro yeast	RE007 growth inh	Cruzain noTriton	NS1 inh	StopGo reporter	LASV entry inh	Cruzain Triton	MARV entry inh
C=CCSc1nnc(Cc2c(C)[nH]c3ccccc23)o1	12.3%	7.6%	2.3%	-44.5%	-6.4%	nt	-5.1%	nt
CCOc1ccc(S(=O)(=O)N(CC(=O)NCCc2ccc(OC)c(OC)c2)c2ccccc2)cc1	nt	nt	-6.6%	nt	?	-18.3%[46.1 µM]	-0.4%	-1.3%[46.1 µM]
COc1ccc(N2CCN(C(=O)Cn3cnc4c(cnn4-c4ccc(C)cc4)c3=O)CC2)cc1	1.7%	6.2%	nt	nt	?	20.9%	nt	-11.0%
CN(C)CC#Cc1cncc(C(=O)NNC(=O)Nc2ccc(Cl)cc2)c1	-0.9%	-2.8%	nt	-3.1%	-15.9%	14.3%	nt	-3.9%
Cc1csc(=Nc2ccc(S(=O)(=O)N3CCOCC3)cc2)n1Cc1ccco1	-2.5%	6.7%&-8.4%	5.4%	-35.8%	?	?	-5.2%	?
COc1cc(O)c(CCO)c2c1C(=O)C[C@@H](C)O2	-1.2%	0.5%	nt	-3.1%	40.6%[activator]	nt	nt	nt
C/C(=N\Nc1nc(N2CCCCC2)nc(N2CCOCC2)n1)c1cccs1	0.4%	4.4%	nt	nt	-11.5%	11.4%	nt	-8.4%[46.1 µM]
CC(C)Cn1c(=O)c2ccccc2n2c(CCC(=O)N3CCN(c4ccccc4F)CC3)nnc12	nt	nt	13.5%	nt	-20.9%	nt	1.7%	-0.4%[46.1 µM]
Cc1oc2ncnc(N3CCCCC3)c2c1C(=O)NCC1CCN(Cc2ccccc2F)CC1	nt	nt	-19.1%	nt	-11.3%	15.9%[46.1 µM]	-0.5%	nt
CCOC(=O)c1nn(-c2ccc(F)cc2)c(=O)cc1OCC(=O)Nc1ccc(OCC)cc1	-0.8%	-7.4%	nt	nt	-4.2%	1.6%	nt	-2.4%[46.1 µM]
CCOC(=O)c1c(S(=O)(=O)N2CCCC2)c(C)n(C)c1C	-1.9%	3.7%	nt	-4.1%	-0.8%	nt	nt	nt
COc1cccc(-c2nnc3sc(CN4CCCCC4)cn23)c1	nt	nt	-3.9%	nt	-23.3%	-8.0%[46.1 µM]	1.6%	nt
CC(C)(C)c1ccc(C(CC(=O)O)NC(=O)CSc2ccccc2)cc1 (stereo not given)	-2.6%	7.2%	nt	nt	-17.0%	-1.1%	nt	4.3%[46.1 µM]
CC(=O)N1CCN(c2ccc(NC(=O)c3cccc(Cl)c3)cc2)CC1	-0.7%	12.9%	nt	-13.0%	26.4%	5.9%[46.1 µM]	nt	?
C#CCOc1c(Cl)cc(C2C3=C(CCCC3=O)N(CC(=O)O)C3=C2C(=O)CCC3)cc1OC	-0.3%	-0.8%	nt	7.3%	7.0%	3.6%[46.1 µM]	nt	0.9%[46.1 µM]
O=C(COC(=O)c1nsc(Cl)c1Cl)NC1CCCC1	-2.2%	-13.8%	nt	-4.2%	-4.8%	16.3%[46.1 µM]	nt	10.2%[46.1 µM]
CCOC(=O)C(C)(C)N(Cc1ccccc1C)S(=O)(=O)c1ccc(Cl)c([N+](=O)[O-])c1	-22.3%	45.6%	-3.5%	10.6%	-18.5%	-14.0%	-5.5%	?
CCN(CC(=O)NCc1cccs1)C(=O)c1ccc(NS(=O)(=O)c2cccc([N+](=O)[O-])c2)cc1	-3.8%	0.6%	nt	nt	-14.4%	3.7%[46.1 µM]	nt	?
O=C(c1cccc(OC(F)F)c1)N1CCN(c2ncccn2)CC1	5.1%	7.2%	7.5%	-4.0%	-9.2%	3.0%	1.4%	-6.4%
Cc1nn(-c2ccccc2)c(OC(=O)c2ccc(Br)cc2)c1S(=O)(=O)c1ccccc1	nt	nt	-2.7%	nt	13.9%	-3.7%[46.1 µM]	1.3%	4.8%[46.1 µM]

Carrying on:
compound	SARS PLpro yeast	RE007 growth inh	Cruzain noTriton	NS1 inh	StopGo reporter	LASV entry inh	Cruzain Triton	MARV entry inh
CCN(CC(=O)Nc1c(F)cccc1F)C(=O)/C=C/c1ccc(S(=O)(=O)N2CCCCCC2)cc1	0.9%	0.4%	nt	nt	-21.1%	nt	nt	-9.8%
Cc1ccc(-n2nc3cc(C)c(NC(=O)c4cccnc4)cc3n2)cc1	-18.9%	24.0%	14.2%	10.9%	32.2%[activator]	-11.2%	-1.7%	22.0%
CC(=O)c1cc(C#N)c(SCC(=O)OC(C)(C)C)nc1C	16.2%	-5.8%	-14.4%	-4.6%	3.9%	27.3%	-5.2%	29.6%[46.1 µM]
O=C(COc1ccc(/C=N/NC(=O)c2ccccc2O)cc1)Nc1ccc([N+](=O)[O-])cc1	-6.5%	-11.5%	?	8.0%	-1.6%	4.0%	-12.5%	-0.5%
O=C(Cc1ccccc1)NCCC1=CCCCC1	19.6%	18.3%	-9.1%	-4.5%	4.3%	5.7%	0.5%	9.8%
Cc1cc(NC(=O)CSc2nnnn2-c2ccc(C)c(C)c2)no1	-1.1%	-5.0%	nt	-1.4%	-1.3%	-21.1%[46.1 µM]	nt	0.3%[46.1 µM]
O=C(CCCCCNC(=O)N1CCn2c1nc1ccccc12)N[C@@H](C(=O)O)c1ccccc1	7.6%	12.7%	nt	-0.7%	-4.2%	nt	nt	nt
COc1ccc(Nc2nc(-c3ccccc3)c3ccccc3n2)cc1	-53.3%	-0.8%	-0.8%	-11.9%	-3.8%	3.6%	-7.2%	5.6%
COc1nc(N2CCCC2)nc(-n2nnc(C(C)=O)c2C)n1	-9.0%	-32.7%	nt	nt	-20.0%	nt	nt	-2.1%[46.1 µM]
OC1CCN(c2c3c(nc4cc(-c5cccc(F)c5)nn24)CCCC3)CC1	-36.4%	0.4%	-4.6%	-129.6%	nt	-24.1%	-10.0%	?
CC(=O)OC1N=C(c2ccccc2Cl)c2cc(Br)ccc2NC1=O (stereo not given)	0.5%	-3.1%	nt	-3.9%	-21.7%	20.6%[46.1 µM]	nt	?
CCOC(=O)N1CCN(c2cc(N3CCN(CC)CC3)c(F)cc2[N+](=O)[O-])CC1C (stereo not given)	8.8%	-2.9%	3.4%	4.2%	-26.0%	-22.2%	-2.1%	?
Cc1cccc(-n2ncc3c2CCCC3NC(=O)Cc2c(C)noc2C)c1C (stereo not given)	2.7%	-3.2%	nt	-5.4%	-21.7%	nt	nt	nt
CCn1c(=O)cc(SCC(=O)Nc2cccnc2)c2ccccc21	2.6%	2.1%	-0.4%	-4.2%	?	-0.9%	3.6%	-1.2%
O=[N+]([O-])c1cccc(C=Nc2cc3c(cc2Br)OCCO3)c1	6.2%	-23.1%	3.8%	-6.5%	10.5%	?	-4.3%	26.0%
CCN(c1cc(C)cc(C)c1)S(=O)(=O)c1nnc(NC(=O)C(C)(C)C)s1	0.1%	8.1%	nt	3.1%	-29.0%	nt	nt	nt
COc1ccccc1Nc1nc(-c2ccc([N+](=O)[O-])cc2)nc2ccccc12	nt	7.5%	nt	nt	-5.7%	6.1%	nt	18.8%[46.1 µM]
Cc1nn(-c2ccccc2)c2c1C(=O)NC(=O)C(C)(C)C2	-1.0%	24.8%	-7.2%	-1.3%	0.0%	-9.9%	-2.3%	4.4%&4.4%[46.1 µM]
NC(=S)c1cc2ccc(O)cc2oc1=O	-3.3%	-19.7%	-1.8%	-9.0%	17.7%	-9.5%	-1.7%	19.5%
CC(C)Cc1nn2c(=O)cc(COC(=O)c3cccc(NC(=O)c4cccs4)c3)nc2s1	nt	nt	-1.8%	nt	-0.5%	11.7%[46.1 µM]	3.3%	nt

More entries follow:
compound	SARS PLpro yeast	RE007 growth inh	Cruzain noTriton	NS1 inh	StopGo reporter	LASV entry inh	Cruzain Triton	MARV entry inh
CCn1c(SCC(=O)OC)nnc1-c1ccncc1	-0.3%	22.1%	3.5%	-3.4%	8.9%	29.4%	0.8%	?
FC(F)(F)c1cc(-c2ccccc2)nc(NCC2CCCO2)n1 (stereo not given)	-12.4%	-5.2%	8.0%	-108.5%	0.0%	-9.4%	-7.6%	?
CC(=O)Nc1ccc(NC(=O)c2c(-c3ccccc3Cl)noc2C)cc1	0.1%	-0.5%	nt	1.5%	-8.5%	nt	nt	29.1%[46.1 µM]
COc1cc2c(cc1OC)C(COc1ccccc1OC)N(C(=O)c1ccccc1OC)CC2 (stereo not given)	nt	nt	?	nt	0.0%	-3.1%[46.1 µM]	0.2%	nt
O/N=C/c1cc(Br)cs1	-0.5%	-4.8%	nt	-3.7%	7.5%	nt	nt	nt
COc1ccc(S(=O)(=O)N(C)C)cc1NC(=O)CCNC(=O)c1ccccc1OC	-1.3%	-12.4%	nt	-1.0%	-11.1%	nt	nt	nt
COc1ccc(CC(=O)Nc2cccc(-c3nnc(-c4ccco4)o3)c2)cc1	7.1%	-17.3%	6.9%	-4.3%	?	?	-1.7%	?
COc1ccc(OCC(=O)c2c[nH]c3ccccc23)cc1	-1.2%	-2.2%	nt	nt	54.2%[activator]	nt	nt	-1.1%[46.1 µM]
COC(=O)c1ccccc1NC(=O)NC1CCCC1	-1.7%	-7.6%	nt	-5.6%	-3.2%	-13.3%	nt	7.1%[46.1 µM]
Cc1[nH]c2ccc(C(=O)NCCCN3CCCCC3)cc2c1C	-0.1%	2.1%	8.0%	20.4%	-2.6%&0.0%	14.4%[46.1 µM]	3.2%	nt
COc1ccc(C(=O)C2=NN(C(C)=O)CC2c2ccco2)cc1 (stereo not given)	-4.2%	0.5%	nt	nt	7.1%	-27.1%	nt	-12.8%[46.1 µM]

Outcome played no part in choosing rows (roughly 4.5% active in at least one column).
